Screens as filed in PubChem BioAssay.
Vaccinia mCherry: inhibitors of vaccinia virus infection (mCherry reporter signal); Vaccinia virus mCherry reporter infection, fluorescence; about a quarter of the inactives have no number; Potency, µM (series often up to 36.5 µM), for inactives: at the top dose activity change, negative = inhibition, actives largely listed as inhibitors; 0.63% of 310,000 active; active = well fitted inhibition curve with a large enough effect; inconclusive = small, poorly fitted or top-dose-only effect; inactive = no such curve, though single readings can be large or run the other way; tested in A549 cells; note: nearly all actives have a fitted effect of over 35% in size; inactives centre near -10
Vaccinia Venus: inhibitors of vaccinia virus (Venus reporter). Vaccinia virus Venus reporter expression, fluorescence. Potency, µM (series often up to 36.5 µM), inactives show at the top dose activity change, negative = inhibition, most hits filed as inhibitors. 0.46% of 330,000 active. AID 720580; active means well fitted inhibition curve with a large enough effect; inconclusive means small, poorly fitted or top-dose-only effect; inactive means no such curve, though single readings can be large or run the other way; tested in A549 cells; note: nearly all actives have a fitted effect of over 30% in size; inactives centre near -10
* marks the source's active call; other numbers are inactive results; i = inactive; ? = inconclusive; . = not tested or not shown; & = joins results of further samples; [ ] = remark or other dose. % is set by controls: 0 for no effect and ±100 for the full control effect; potency is the fitted concentration of half-maximal effect.

Compound	Vaccinia mCherry	Vaccinia Venus
COc1ccc(-n2c(SC)nnc2-c2c[nH]c3ccccc23)cc1	i	-18%
O=C(Nc1c(-c2ccc(Cl)cc2)[nH][nH]c1=O)c1ccccc1Cl	26%	-2%
O=S(=O)(c1ccc(Br)cc1)N1CCCC1c1nc2ccccc2s1 (stereo not given)	-15%	-12%
CCN(C(=O)COC(=O)CNS(=O)(=O)c1ccc2ccccc2c1)C1CCCCC1	i	5%
Cc1cc(N)c(NC2=CC(=O)CC(C)(C)C2)cc1C	-19%	-12%
O=C(NCC1CCCO1)c1ccc(COCC(F)(F)C(F)F)cc1 (stereo not given)	i	-9%
CCOC(=O)c1cccc(NC(=O)c2cc3c(=O)n(Cc4cccnc4)ccc3nc2C)c1	-12%	-4%
C[n+]1ccc(/C=C/c2ccc3ccccc3c2)cc1	?	?
O=C(CCN1C(=O)/C(=C\c2ccc(F)cc2)SC1=S)Nc1ccccc1	-2%	-7%
CN(C)c1cccc(C(=O)NN2C(=O)NC3(CCCCC3)C2=O)c1	-21%	-6%
Cc1ccc(N(C)C(=O)c2ccc(CNc3c(N4CCC(C)CC4)c(=O)c3=O)cc2)cc1	-1%	-12%
CCN(CC)c1ccc(/C=N/NC(=O)c2cc(C)nc3ccccc23)cc1	-30%	-22%
Cc1nc(N2CCCC2)c2c(C(=O)Nc3ccc(C)c(Cl)c3)c(C)oc2n1	i	-15%
COC(=O)c1ccc(Cn2cc([N+](=O)[O-])cn2)cc1	i	-8%
CC(=O)N1Cc2ccccc2CC1C(=O)NCc1ccccc1F (stereo not given)	-4%	2%
CC1CCCN(CCCNC(=O)C2CCC(CNS(=O)(=O)c3cccc4nsnc34)CC2)C1 (stereo not given)	-18%	-10%
CC(C)C[C@@H](CN1CCC[C@H]1CN1C(=O)C(=O)NC[C@@H]1Cc1ccccc1)N1C[C@H](Cc2ccc(O)cc2)N(CC2CCCCC2)C(=O)C1=O	-7%	-5%
COc1ccc(N2CCN(Cc3nc4c(c(=O)n(C)c(=O)n4C)n3CCc3ccccc3)CC2)cc1	-13%	-19%
CCOc1ccc(CCNC(=O)Cn2ncc3c(=O)oc4ccc(C)cc4c32)cc1	0%	-2%
CCOC(=O)c1ccc(NS(=O)(=O)c2cc(-c3onc(C)c3C)ccc2C)cc1	-6%	-9%
O=C(Nc1sc2c(c1C(=O)NCc1ccco1)CCCC2)c1ccc2c(c1)OCO2	-8%	-9%
Cc1ccc(CN2CCC(NC(=O)c3ccccc3)CC2)cc1	i	-13%
CC(=O)c1c(C)[nH]c(C(=O)OCc2cccc(Cl)c2)c1C	?	-26%
CCC(=O)C1=C(c2cccc(OC)c2)N(C(=O)CC)n2c(nnc2C2CCCCC2)S1	-38%	?
Cc1cc(O)c(N)c(C)c1Cl	-2%	-10%

Fetched one by one from above (two):
Compound	Vaccinia mCherry	Vaccinia Venus
CC(=O)N1Cc2ccccc2CC1C(=O)NCc1ccccc1F (stereo not given)	-4%	2%
CC(=O)c1c(C)[nH]c(C(=O)OCc2cccc(Cl)c2)c1C	?	-26%

Next section.
Compound	Vaccinia mCherry	Vaccinia Venus
CCCC1=Nc2cc(C(=O)NCCc3ccccc3)ccc2Sc2ccc(C)cc21	-7%	?
O=C(Nc1ccccc1)C1CCCN1S(=O)(=O)c1ccc(Br)cc1 (stereo not given)	i	-19%
COC(=O)[C@@H]1C[C@@]2(O)[C@H](O)[C@H](O)[C@H](O)C[C@H]2N1Cc1ccc(C)s1	-20%	-2%
COc1ccc(NC(=O)Cn2c(SCc3cccc(Cl)c3)nc3ccncc32)c(OC)c1OC	i	-5%
CN(C)CCNc1ncnc2c1ncn2[C@H]1CN(Cc2ccccc2)C[C@@H](CO)O1	4%	2%
CCOC(=O)C1=C(C)NC(C)=C(C(=O)OCC)C1c1ccncc1	-9%	-14%
COc1ccc(Cl)cc1NS(=O)(=O)c1cn(C)nc1C	-3%	-7%
COc1ccc(N=C2SC(CC(=O)Nc3ccccc3)C(=O)N2Cc2ccco2)cc1 (stereo not given)	-22%	-25%
CC(=O)Nc1ccc(CN2C(=O)C(Cc3ccccc3)ON=C2c2ncccc2C)cc1 (stereo not given)	15%	5%
O=C(O)C1C2C=CC(C2)C1C(=O)Nc1ccccc1Br (stereo not given)	-24%	-1%
O=C(O)c1c2c(nc3ccccc13)-c1ccccc1CC2	-11%	-5%
CN1CCN(C(=O)c2cc3c(c(-c4cccc(Br)c4)n2)[C@H](CCO)N(S(=O)C(C)(C)C)C3)CC1 (stereo not given in full)	26%	1%
O=C(Nc1ccccc1O)c1cccc(S(=O)(=O)Nc2ccccc2O)c1	-13%	-27%
COC(=O)c1ccc(N2C(=O)CC(SCCN)C2=O)cc1 (stereo not given)	-13%	-12%
Cc1ccc(-n2ncc3c(Nc4cccc(C(=O)O)c4)ncnc32)cc1	-12%	-6%&-17%
O=P(Cc1cc[n+]([O-])cc1)(c1ccccc1)c1ccccc1	.	-13%
COc1ccc2c(C(=O)NCCCCO)c(-c3ccc(S(C)(=O)=O)cc3)sc2c1	-5%	-12%
C[C@@H]1CN(Cc2ccc3c(c2)CN(Cc2cccc4cccnc24)CCO3)C[C@H](C)O1	-7%	-1%
CN1CC=C2C(C#N)=C(N)C(C#N)(C#N)[C@H](c3ccoc3)[C@H]2C1	-12%	39%[activator]
Cc1ccc(S(=O)(=O)N2CCc3cc(C(=O)Nc4ccc(C(F)(F)F)cc4)ccc32)cc1	-14%	-14%
CC(C)(C)c1cc(C(=O)NN)n(Cc2ccc(Cl)cc2Cl)n1	?	?
CC(CNC(=O)c1cc(COc2c(F)cccc2F)on1)c1ccccc1 (stereo not given)	-9%	-25%
S=C(NCC1CCCO1)NC1CC1 (stereo not given)	-4%	-6%
COc1ccc(CC(=O)Nc2ccc(-c3cn4ccc(C)cc4n3)cc2)cc1	.	-28%
O=C(Nc1ccc2c(c1)OCCO2)C1CCCN1S(=O)(=O)c1cccc2cccnc12 (stereo not given)	i	-5%
COc1ccc(C)cc1N1CC(C(=O)OCc2nc(N)nc(Nc3ccccc3C)n2)CC1=O (stereo not given)	i	8%
NC(=O)CC(NC(=O)Cc1ccc(Br)cc1)c1ccc(N2CCCCCCC2)c([N+](=O)[O-])c1 (stereo not given)	?	?
COCCCNS(=O)(=O)c1ccc(SC)cc1	-4%	-2%
Cc1ccc(C(=O)c2cn(Cc3ccccc3F)c3cc4c(cc3c2=O)OCCO4)cc1	-9%	-14%
CC(=O)NC1(c2ccccc2)CCN(C(=O)N2CCOCC2)CC1	-14%	-11%
Cc1cccc(N(C)S(=O)(=O)c2cc3c(cc2Cl)NC(=O)CO3)c1	4%	-2%
C=CCn1c(SCC(=O)Nc2sc3c(c2C#N)CCC(C)C3)nc2cc(C(=O)O)ccc2c1=O (stereo not given)	-3%	0%
C[C@@]12C(=O)Nc3cc(Cl)ccc3C(=O)N1[C@H]1c3cc(Br)ccc3OC[C@@H]1[C@@H]2c1ccccc1	-4%	-23%
CCOc1ccc(-c2csc(NC(=O)CSCC(=O)O)n2)c2ccccc12	-17%	-12%
O=[N+]([O-])c1cccc(COc2ncnc3cc([N+](=O)[O-])ccc23)c1	?	15%
Cc1ccc(N(C)S(=O)(=O)c2cccc(C(=O)Nc3ccc(C)cn3)c2)cc1	-26%	-23%
CCN1C(=S)SC(=O)C1=C1C=C(C)N(Cc2ccco2)C(C)=C1	?	-25%
CN1CCN(C(=O)c2ccccc2[N+](=O)[O-])CC1	i	-20%
Cc1ccc(SCC(=O)OCC(=O)Nc2ccc3[nH]c(=O)[nH]c3c2)cc1C	-7%	-21%
COc1cc(CCCN2C(N)=NC[C@H]2Cc2ccc(O)cc2)cc(OC)c1OC	-14%	2%
COc1ccc(/C=C(/C#N)C(=O)Nc2ccc(O)cc2)cc1C(=O)O	-16%	-12%
CCc1ccccc1N(CC(=O)OC)S(C)(=O)=O	-11%	-3%
CCCCNC(=O)C1CCN(C(=O)Nc2ccc(C)cc2)CC1	-10%	-14%
O=C(COC(=O)COc1ccccc1)NCc1ccccc1	i	7%
CC(=O)NC1=CC(=C[N+](=O)[O-])C=C1O	-11%	-5%
COc1ccc(S(=O)(=O)Nc2ccc3c(c2)C(=O)N([C@@H](C)CO)C[C@@H](C)[C@H](CN(C)C(=O)CCCN(C)C)OCCCC[C@H](C)O3)cc1	i	-1%
COC(=O)c1c(C)oc2ccc(OC(=O)c3cccs3)cc12	i	-17%
COc1cccc(N(C(=O)c2csnn2)C(C(=O)NC2CCCC2)c2ccccc2)c1 (stereo not given)	-11%	3%
CC(=O)c1ccc(NC(=O)c2ccc3c(c2)N(Cc2cccc(Cl)c2)C(=O)c2ccccc2S3(=O)=O)cc1	-13%	-3%
COc1ccc(-c2cc3ncnc(Cl)c3s2)cc1	i	-8%

(cont.)
Compound	Vaccinia mCherry	Vaccinia Venus
Cc1ccccc1NS(=O)(=O)c1ccc(C)c(C(=O)N2CCOCC2)c1	i	-4%
COc1ccc(OCCC(=O)Nc2cc3c(cc2C(=O)O)OCCCO3)cc1	i	-10%
COc1cc(/C=C/C(=O)OCC(=O)c2c[nH]c3ccccc23)ccc1OC(F)F	i	-18%
CCOC(=O)Cn1c(=O)oc2cc(S(=O)(=O)N3CCC(C(=O)OCC)CC3)ccc21	1%	-5%
CC(=O)NC(CC(=O)O)c1ccc([N+](=O)[O-])cc1 (stereo not given)	-20%	0%
CC(C)n1nnnc1C1c2ccccc2C(=O)N1Cc1cccs1 (stereo not given)	15%	-1%
O=C(CCN1CCN(Cc2ccccc2)CC1)NNC(=O)Cc1ccc(Cl)c(Cl)c1	28µM*	?
O=C(CN1CCN(CC(=O)Nc2ccccc2F)CC1)Nc1cccc(F)c1	-11%	-10%
COc1cccc(N2CCN(C(=O)c3cccc(-n4c(C)nc5cccnc54)c3)CC2)c1	-23%	-21%
O=C(CN1C(=O)COc2ccc(S(=O)(=O)N3CCCC3)cc21)N1CCN(c2ccccc2)CC1	-10%	-8%
COc1ccc(CCNC(=O)CCn2c(=O)c3ccccc3n(CC(=O)Nc3ccccc3F)c2=O)cc1OC	10%	-2%
Cc1scc(C(=O)N/N=C/c2ccc(OCC(C)C)cc2)c1C	?	-29%
CCCCOc1ccccc1C(=O)Nc1nonc1-c1ccccc1	i	-19%
CC(C)(C)NC(=O)C(c1ccco1)N(C(=O)c1ccc(CN2CCOCC2)o1)c1ccccc1 (stereo not given)	?	-13%
COc1ccc(C(=O)NCC(c2ccco2)N2CCc3ccccc3C2)cc1 (stereo not given)	i	-1%
CCCCCn1c2c(c(=N)c3ccccc31)CCC2	i[7.34 µM]	3%[7.34 µM]
CCO[C@@H]1OC(C(=O)N2CCN(Cc3ccccc3)CC2)=C[C@H](c2ccc(C(F)(F)F)cc2)[C@H]1CCCO	i	?
CCN(CC)C(=O)Cn1c(=O)cc(C)c2c(C)nn(-c3ccc(C)cc3)c21	4%	7%
COc1ccc(NC(=O)CC2C(=O)N(c3ccc(Cl)cc3)C(=S)N2CCc2ccccn2)cc1 (stereo not given)	-4%	?
Cn1ccnc1SCC(=O)NCC(=O)Nc1ccc(F)c(F)c1F	-15%	-5%
Clc1nssc1=Nc1ccc(Br)cc1	i	-21%
CCC1CN(Cc2cn[nH]c2-c2ccccc2)Cc2cc(OC)ccc2O1 (stereo not given)	-21%	-18%
Cc1nn(-c2ccccc2)c(N)c1C(c1ccc(C(C)C)cc1)c1c(C)nn(-c2ccccc2)c1N	i	-4%
S=c1[nH]nc(C2CCCCC2)n1/N=C/C(Cl)=C\c1ccccc1	-16%	-8%
CCOc1ccc(NC(=O)CN(C)C(=O)c2c(C)nn(-c3ccccc3)c2Cl)cc1OCC	-1%	-14%
Cc1c(C(Nc2ccccn2)c2ccccc2)c(=O)n(-c2ccccc2)n1C (stereo not given)	.	-1%
Cc1cc(C(=O)COC(=O)Cc2ccc(Cl)cc2)c(C)n1C	-15%	-14%
Cn1c2ccccc2c2c(C(=O)O)cn(C3CCCC3)c(=O)c21	-4%	-8%
COc1cccc(-c2ccc(SCC(=O)NC3CCCC3)nn2)c1	i	-2%
Cc1cc(NC(=NC2CC2)c2ccccc2)n(-c2ccccc2)n1	-18%	-6%
O=C(CSc1nc2c([nH]c3ccccc32)c(=O)n1-c1ccccc1F)Nc1ccccc1C(F)(F)F	-2%	-22%
OC(COCC(F)(F)C(F)(F)C(F)(F)C(F)F)Cn1c2ccc(Cl)cc2c2cc(Cl)ccc21 (stereo not given)	?	11µM*
CCOc1ccc(C(=S)N2CCN(C)CC2)cc1	-2%	7%
Cc1nc2cc(NC(=O)[C@@H]3C[C@@H](Sc4ccccn4)CN3Cc3ccc(F)cc3F)ccc2s1	-15%	0%

By substructure, the entries above containing a CF3 group (three)
Compound	Vaccinia mCherry	Vaccinia Venus
Cc1ccc(S(=O)(=O)N2CCc3cc(C(=O)Nc4ccc(C(F)(F)F)cc4)ccc32)cc1	-14%	-14%
CCO[C@@H]1OC(C(=O)N2CCN(Cc3ccccc3)CC2)=C[C@H](c2ccc(C(F)(F)F)cc2)[C@H]1CCCO	i	?
O=C(CSc1nc2c([nH]c3ccccc32)c(=O)n1-c1ccccc1F)Nc1ccccc1C(F)(F)F	-2%	-22%

Outcome played no part in choosing rows; overall some 0.82% were active at least once.
